HIV Env fusion: inhibitors of HIV-1 Env-driven cell-cell fusion, primary screen, HeLa-JRFL effector, CEM21 target cells, luciferase; inhibition, % at 12.3 µM; 360,000 compounds, 1.1% hits;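 active means mean replicate inhibition score of at least 50 and every replicate individually at or above 50; inconclusive means only one of the two criteria met; inactive means mean below 50 and not all replicates reaching 50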;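 further: 0% = plate neutral controls and 100% = maraviroc near 300 nM; one replicate is shown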
Rce1 inhib: yeast Rce1p protease inhibitors, primary screen, biochemical, fluorescence, cell-free homogeneous. CAAX prenyl protease 2 (Saccharomyces cerevisiae (strain ATCC 204508 / S288c)), Q03530. yeast membranes, quenched prenylated peptide cleavage fluorescence. calls only. 290,000 compounds, 0.27% hits. AID 2563, 2010;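 active means fall in fluorescence gain of 50% or more versus controls, with final raw signal at or below 3038400; inconclusive means same 50% fall but final raw signal above 3038400; inactive means fall in fluorescence gain under 50%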;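 further: plate controls were neutral control wells for no effect and wells lacking membranes for full effect; tested at 10 µM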
Target sequence (Q03530 whole entry, looked up): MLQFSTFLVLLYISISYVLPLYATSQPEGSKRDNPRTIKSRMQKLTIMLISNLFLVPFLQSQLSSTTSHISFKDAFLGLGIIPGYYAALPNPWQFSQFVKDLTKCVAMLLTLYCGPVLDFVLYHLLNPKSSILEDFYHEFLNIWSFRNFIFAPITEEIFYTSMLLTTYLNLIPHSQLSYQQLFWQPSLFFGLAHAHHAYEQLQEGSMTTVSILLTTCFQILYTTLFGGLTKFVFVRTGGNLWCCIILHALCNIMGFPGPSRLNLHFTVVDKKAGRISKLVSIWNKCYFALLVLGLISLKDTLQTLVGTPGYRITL
UUG fidelity: modulators of yeast start codon fidelity, primary screen, whole organism, S. cerevisiae, single point, plate reader | 350,000 compounds, 0.13% hits | activity score, % at 18.7 µM | AID 602363, 2012 | S. cerevisiae UUG-firefly luciferase reporter, luminescence/redox ratio;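 active means replicate mean at a twofold rise or more, about +100% in these data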;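 further: firefly luciferase made from a UUG start codon reports start codon fidelity; reporter light over untreated wells divided by growth signal over untreated wells; some hits fall short of that in this replicate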
PABP FP inh: PABP poly(A) RNA binding inhibitors, primary screen, biochemical, fluorescence polarization, uHTS; inhibition, % at 35 µM; Polyadenylate-binding protein 1 (Homo sapiens), P11940; AID 2014, 2009; 290,000 compounds, 1% hits;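 active means 50% or more with normal probe brightness, or confirmed in later tests; inconclusive means above 50% with abnormal brightness, or retests that disagree; inactive means below 50% or failed in later tests; about a fifth of its hits are not listed in these tables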;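 further: calls also rest on retests at 20 µM and on dose response follow-up; controls were probe without protein and protein plus probe with vehicle; some compounds called inactive have numbers as strong as hits; many hits fall short of the cut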
Target sequence (P11940 whole entry, looked up): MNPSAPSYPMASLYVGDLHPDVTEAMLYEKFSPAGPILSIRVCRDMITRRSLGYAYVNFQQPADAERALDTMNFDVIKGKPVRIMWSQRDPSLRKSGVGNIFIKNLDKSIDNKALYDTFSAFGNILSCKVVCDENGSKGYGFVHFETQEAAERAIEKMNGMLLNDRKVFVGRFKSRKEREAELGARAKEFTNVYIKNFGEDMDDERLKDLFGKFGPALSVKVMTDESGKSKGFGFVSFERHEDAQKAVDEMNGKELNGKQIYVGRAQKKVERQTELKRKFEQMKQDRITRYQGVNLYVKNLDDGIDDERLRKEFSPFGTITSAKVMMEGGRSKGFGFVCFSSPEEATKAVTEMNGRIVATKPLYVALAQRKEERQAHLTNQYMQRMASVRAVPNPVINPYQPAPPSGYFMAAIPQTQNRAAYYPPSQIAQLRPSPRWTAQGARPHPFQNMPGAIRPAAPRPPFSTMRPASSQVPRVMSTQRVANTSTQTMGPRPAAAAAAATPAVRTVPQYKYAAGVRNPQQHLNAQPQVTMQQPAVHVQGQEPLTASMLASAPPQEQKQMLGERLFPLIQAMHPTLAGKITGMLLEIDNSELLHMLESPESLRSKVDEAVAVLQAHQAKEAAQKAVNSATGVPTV
MT1-MMP act inh: blockers of MT1-MMP proenzyme processing, primary screen, HT1080 RFP-PRO-GFP cells, GFP/RFP fluorescence. Matrix metalloproteinase-14 (Homo sapiens), P50281. GFP/RFP ratio fluorescence, overnight; percent of plate control window, DMSO zero. GFP/RFP ratio change, % at 20 µM. 360,000 compounds, 0.061% hits. AID 651647, 2012;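 active means GFP/RFP ratio change of at least 30% with cell ATP level not reduced by more than half and red fluorescence within 50% of control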; further: strong numbers were not always called active
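system = RFP-PRO-GFP reporter HT1080 cells | dosing = 20 µM single dose, 1% DMSO | timing = overnight cell settling, then overnight compound exposure, 37 °C, 5% CO2 | read-out basis = GFP/RFP fluorescence ratio | controls = DMSO and RFP-L50D-GFP cell wells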
CSC inhib: cancer stem cell viability inhibitors, primary screen, luminescence | inhibition, % at 7.5 µM | AID 2717, 2010 | 300,000 compounds, 1.1% hits | cancer stem cell-like cells viability;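 active means mean at 75% or more and at least half the replicates too; inconclusive means mean and replicates disagree; tested in HMLE shEcad cells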;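 further: 0% = median of negative and 100% = median of positive control wells; the first replicate is given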
eIF4H inh: human eIF4H binding inhibitors, primary screen, translation initiation inhibitor project, biochemical, uHTS, fluorescence polarization; Eukaryotic translation initiation factor 4H (Homo sapiens), Q15056; 290,000 compounds, 0.94% hits; inhibition, % at 35 µM; eIF4H fluorescence polarization binding assay; AID 2012, 2009;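 active means 50% or more with normal probe brightness, or confirmed in later tests; inconclusive means above 50% with abnormal brightness, or retests that disagree; inactive means below 50% or failed in later tests; about a fifth of its hits are not listed in these tables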;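 further: calls also rest on retests at 20 µM and on dose response follow-up; 0% = protein and probe with vehicle and 100% = probe without protein; strong numbers were not always called active; many hits fall short of the cut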
eIF4H inh retest: further read-out of eIF4H inh, marked with its call; inhibition, %; compound at 20 µM; confirmation average;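 mean of two retest wells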
PABP FP inh retest: further read-out of PABP FP inh, marked with its call; inhibition, %; compound at 20 µM; confirmation repeats;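 mean of two retest wells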
MT1-MMP act inh RFP: recorded beside MT1-MMP act inh, whose call it bears; RFP signal change, %; measured here: RFP expression control read;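 0 = vehicle wells; hits needed this value within 50% of zero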
* = called active by the depositor; i = inactive; ? = inconclusive; . = no result given.

SMILES	HIV Env fusion	Rce1 inhib	UUG fidelity	PABP FP inh	MT1-MMP act inh	MT1-MMP act inh RFP	CSC inhib	eIF4H inh	others
CCCCCCn1c(=O)[nH]c2nc3cc(N)c(C)cc3nc2c1=O	2	.	.	3.5*	-121	-2	.	65	eIF4H inh retest=14;PABP FP inh retest=50*
COc1ccc(-n2cnc3cc([N+](=O)[O-])ccc32)cc1	-9	.	.	6	-3	-4	.	-7
C=CCNC(=O)C12CC3CC(C1)CC(C(=O)NCC=C)(C3)C2	-41	.	-25	-6	11	5	-15	-2
CCc1ccc(C2CC(c3cccc(OC)c3)n3nc(N)nc3N2)cc1 (stereo unspecified)	-21	i	-21	1	-1	1	.	-3
S=c1[nH]nc(CN2CCCCC2)n1-c1ccc(Cl)cc1	0	i	.	4	0	1	-12	-15
COc1ccc(C(=O)NC2=NCCS2)cc1S(=O)(=O)N1CCOCC1	0	.	-18	.	0	3	.	.
O=c1[nH]nc(CNc2ccc(O)cc2)c2ccccc12	0	i	-5	55*	49*	36*	22	59*
CCOC(=O)C1CCN(S(=O)(=O)c2cccc(-c3cn4ccccc4n3)c2)CC1	.	i	-11	9	-1	-11	8	6
COc1ccc(C(C)=O)cc1COc1cccc2cccnc12	-15	i	-21	4	4	2	-2	-5
COc1cc(CN2CCNC(=O)C2CC(=O)NC2CCCC2)cc(OC)c1 (stereo unspecified)	-2	i	0	0	-1	0	4	9
O=C(Nc1ccc(F)cc1)N(Cc1ccco1)Cc1cc2cc3c(cc2[nH]c1=O)OCO3	.	i	-8	14	-7	-22	-6	1
Cc1cccc(NC(=O)CSCc2c(C)noc2C)c1C	-83	i	-3	2	-2	2	-7	-5
CN(c1ccc(C(=O)O)cc1)S(=O)(=O)c1ccccc1	.	i	-15	3	2	6	9	-10
CCOC(=O)NC(=O)COC(=O)c1ccc(O)cc1	-1	i	.	11	-3	2	-14	5
Cc1ccc(S(=O)(=O)/N=C(\N)Nc2nc(C)c3ccc(C)cc3n2)cc1	-16	i	.	-4	-1	-9	-9	-12
COC(=O)c1cnc(N2CCCN(S(=O)(=O)c3ccccc3)CC2)nc1C(F)(F)F	27	i	.	-3	3	-1	-4	21
CCn1nc(C)c(Br)c1Nc1ccc(Br)cc1	-5	i	-13	-5	0	4	-9	5
O=C(Cc1ccccc1Cl)Nc1ccc(S(=O)(=O)N2CCOCC2)cc1	.	i	-13	.	-4	-2	-13	.
CC[n+]1ccccc1/C=C/Nc1ccccc1	11	i	.	51*	-6	-1	-7	-2
O=C(Cc1cccc(NC(=O)C2CCCN(C(=O)C3CCCC3)C2)c1)Nc1cccc(C(=O)N2CCCCC2)c1 (stereo unspecified)	-3	.	-1	.	3	1	.	.
CC1CCC(NC(=O)c2cc(C3CC3)nn2-c2ccccc2)CC1 (stereo unspecified)	7	.	-20	.	-5	-6	.	.
O=C(CN1C(=O)C2CC=CCC2C1=O)Nc1ccc(S(=O)(=O)NC2=NCCCCC2)cc1 (stereo unspecified)	4	i	-15	-8	10	4	-5	-13
CC(=O)Oc1ccc2c(C)c(CC(C)O)c(=O)oc2c1 (stereo unspecified)	-117	i	-17	0	2	5	-8	10
CCC(C)(C)NC(=O)C(c1ccc(OC)cc1)N(C(=O)CCC(=O)Nc1cc(C)on1)c1ccccc1OC (stereo unspecified)	8	i	.	2	-2	1	0	-9
CCOc1ccc(N(CC(=O)NC2CCCCCC2)S(=O)(=O)c2c(C)[nH]c(=O)[nH]c2=O)cc1	7	i	-2	-6	2	4	-7	-15
CCCCn1c(=O)c2c(c3ccccc31)OCC(=O)N2	.	i	.	4	.	.	-7	3
COC(=O)c1ccccc1OCCCOc1ccc(C)cc1OC	.	i	.	11	.	.	0	8
O=C(NCc1ccc(F)cc1)c1ccc(N2CCc3ccccc32)c([N+](=O)[O-])c1	39	i	.	-4	3	-14	31	-2
COc1ccc([C@@H]2CC=C(C(=O)O)[C@H](c3ccc(Cl)cc3)N2S(=O)(=O)c2ccc(C)cc2)cc1OC	-1	.	19	.	-3	4	-11	.
CC(=O)N1c2ccccc2C2(C)C(C1(C)C)C2(Cl)Cl (stereo unspecified)	9	i	-13	-2	0	-2	-12	-3
Cc1cccn2c(=O)nc(SCC(=O)NCc3ccc(F)cc3)nc12	.	i	1	.	-1	-2	-12	.
CCN(CC)S(=O)(=O)c1ccc(N2CCOCC2)c(NC(=O)CNCCc2ccccc2)c1	38	i	.	-2	-1	-4	5	-5
CCOC(=O)N1CCN(CC(=O)Nc2ccc(C)cc2)CC1	.	i	-8	2	-1	-3	-5	-3
CC(C)CC(=O)NS(=O)(=O)c1ccc(NS(C)(=O)=O)cc1	-1	i	.	1	-4	3	-19	-5
CCOc1ccc(N2CC(C(=O)NCc3ccccn3)CC2=O)cc1 (stereo unspecified)	5	i	2	8	4	5	-12	-1
Cc1cccc(NC(=O)N2CCCC(CNC(=O)c3ccccc3Cl)C2)c1C (stereo unspecified)	-3	i	11	-3	3	1	-10	-13
CC(=O)c1ccc(N2CCN(C(=S)Nc3ccc(Cl)c(Cl)c3)CC2)cc1	2	i	.	2	0	-1	-8	-8
Cc1ccc(-c2nc3sc(C#N)c(N)n3c(=O)c2C#N)cc1	-34	i	-20	?	-58	2	10	?
COc1ccccc1N(C(=O)c1ccco1)C(C(=O)NC1CCCC1)c1cccnc1 (stereo unspecified)	.	i	-4	2	-1	3	.	-5
CCN(C(=O)[C@@H]1CCCN1C(=O)c1cccs1)c1nc2cc(Cl)ccc2s1	-21	i	-7	10	-9	-12	-23	-1
O=C(COC(=O)C1=COCCO1)NC1CCCCCCC1	-4	i	-10	17	3	4	.	12
COc1ccc(NC(=S)NC2CC3CCC(C2)N3Cc2ccco2)cc1 (stereo unspecified)	-53	i	.	-6	1	2	4	2
COc1ccc(-c2c(C#CC(C)(C)O)c3ccccc3n2C)cc1	41	.	-18	.	-9	-2	2	.
CC(=O)NC(Cc1c[nH]c2ccccc12)C(=O)NCCc1ccccn1 (stereo unspecified)	12	i	-21	6	3	4	-9	-1
Cc1ccccc1CS(=O)(=O)c1nnc([C@H](CC(C)C)NC(=O)OC(C)(C)C)o1	.	i	-13	3	1	6	.	7
Cn1c(O)c(/C=N/NC(=O)c2cc3ccccc3cc2O)c2ccccc21	-31	i	-31	-1	-24	-1	.	9
O=C(NC1CCN(S(=O)(=O)c2ccccc2F)CC1)c1ccco1	-19	i	-3	2	0	-3	-1	1
O=C(c1cccc(C(=O)N2CCN(c3ccccc3F)CC2)n1)N1CCN(c2ccccc2F)CC1	-8	i	0	8	-2	-4	.	-3
S=C(NC1CCCC1)N1CCN(c2ncccn2)CC1	5	i	.	-7	-3	4	-26	-10
CCOC(=O)c1c(CC(C)C)csc1NC(=O)COC(=O)c1ccc(O)cc1	-11	.	-15	.	2	-8	.	.
CCN(CC)C(=O)Cn1c(C)c(/C=C/c2cc[n+](C)cc2)c2ccccc21	-6	i	16	?	-158	-1	-7	?
CCOc1ccc2nc(SCC(=O)N3CCN(C(=O)c4ccco4)CC3)sc2c1	.	i	9	-3	2	-5	-9	-1
Cc1ccccc1N(CC(=O)NC1CCCCC1)C(=O)CCCC(=O)Nc1ccccn1	0	.	-14	5	-1	0	-13	-6
N#CCC(=N)N1CCN(c2ccc(Cl)cc2)CC1	.	i	-9	-4	3	0	.	0
COCCNC(=S)NCCCNc1nc2cc3c(cc2cc1C#N)OCO3	.	i	-20	6	-3	2	-32	22
O=C1CCC(C(=O)Nc2ccccc2)N1 (stereo unspecified)	.	i	-11	-3	2	4	.	-6
CN1CCC(NCCC(c2ccc(F)cc2)c2ccc(Cl)cc2)CC1 (stereo unspecified)	-14	i	.	1	5	2	35	13
Cc1c(Cl)cccc1NC(=S)NN1CCOCC1	.	i	-62	3	1	4	-8	3
Cc1ccc([C@@H]2C[C@H]3[C@@H](CN2S(=O)(=O)c2ccc(Cl)cc2)C(=O)C[C@@H](c2ccc(Cl)cc2)N3S(=O)(=O)c2ccccc2C)cc1	13	.	-6	.	0	-1	.	.
COc1ccc(NC2CCCN(C(=O)c3ccncc3)C2)cc1 (stereo unspecified)	-4	i	-11	4	3	5	.	-10

The list continues:
SMILES	HIV Env fusion	Rce1 inhib	UUG fidelity	PABP FP inh	MT1-MMP act inh	MT1-MMP act inh RFP	CSC inhib	eIF4H inh	others
Cc1ccc(/C=C/C(=O)OCC(=O)NCCN2C(=O)CSC2=O)o1	-1	i	.	-12	-1	1	9	5
O=C(O)c1nn(-c2ccccc2)ccc1=O	.	i	2	-1	-2	3	1	5
COc1cccc(CNc2nc(NCc3ccccc3)nc3ccsc23)c1	-13	.	-5	.	-7	-20	.	.
O=C(NC1CC1)C1CCN(C2CCN(C(=O)c3ccc4cccc(F)c4n3)CC2)CC1	-2	i	.	-6	3	5	-7	-1
Cc1ccc(-c2csc(N(Cc3ccco3)C(=O)c3cccs3)n2)cc1	.	.	0	-9	-5	-11	0	-16
CCOC(=O)C1=C(C)NC2=C(C(=O)CC(C)(C)C2)C1c1coc2ccccc2c1=O (stereo unspecified)	.	i	-5	7	-7	-3	3	-4
CCc1c(C)sc(NC(NC(C)=O)(C(=O)OC)C(F)(F)F)c1C#N (stereo unspecified)	20	i	.	4	1	5	-21	-3
Clc1ccc(C2[C@H]3CN(Cc4ccc(-c5ccccc5)cc4)[C@H](c4ccccc4)C34CC2(c2cccnc2)C4)cn1 (stereo partly specified)	.	i	.	-17	.	.	.	-13
CC(C)(C)OC(=O)N(CCc1ccccc1)Cc1ccccc1OCc1cccc(NC(=O)C2CCC2)c1	32	.	-13	.	-11	-16	.	.
COc1ccc(C(=O)NCCCNC(=O)c2ccccn2)cc1	-3	i	-7	5	4	4	2	0
C=CCN(CC(=O)NC1CCS(=O)(=O)C1)S(=O)(=O)c1ccccc1C(F)(F)F (stereo unspecified)	-21	i	8	8	-3	-2	10	-4
Cc1cc(C(=O)COC(=O)c2ccc(NC(=O)CC#N)cc2)c(C)n1C1CC1	-29	.	-46	.	-16	3	.	.
Cc1ccc(N)cc1O	.	.	-19	.	2	7	-1	.
Cc1nnc(C)n1/N=C/c1cccc([N+](=O)[O-])c1	-5	i	.	17	2	4	-2	0
CC(NC(=O)c1ccc(OC2CCN(C(=O)c3cccnc3)CC2)cc1)C1CC1 (stereo unspecified)	3	i	-21	-14	0	-2	.	-3
Cc1ccc(C(=O)NCC(c2ccc(F)cc2)N2CCOCC2)s1 (stereo unspecified)	-7	.	4	.	0	3	-3	.
CC(C)Oc1ccccc1C1CC(=O)Nc2c1c(=O)n(C)c(=O)n2C (stereo unspecified)	.	i	.	7	.	.	-15	-9
Cc1ccsc1/C=C/c1ccc2ccccc2n1	-158	i	-62	7	-18	0	-8	-8
O=C(Nc1ccc2c(c1)CCC2)c1ccccc1	.	i	-28	2	4	2	4	7

Bioassay records (PubChem)

Not all compounds are listed. The share of hits here may be higher or lower than overall.
